HPGD inh – blocks human HPGD enzyme activity. P15428. purified HPGD, NADH fluorescence kinetic, PGE2 substrate. Potency, µM, for the others: at the highest dose activity change, negative = inhibition, most hits filed as inhibitors. 150,000 tested, 4.3% active. AID 894; active = well fitted inhibition curve with a large enough effect (not every such curve was filed as active); inconclusive = small, poorly fitted or top-dose-only effect, or another doubt; inactive = no such curve, though single readings can be large or run the other way;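 also: top concentration of the series not given in the record; plate controls included wells without enzyme; inactives centre near -10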
Target sequence (P15428 whole entry, looked up): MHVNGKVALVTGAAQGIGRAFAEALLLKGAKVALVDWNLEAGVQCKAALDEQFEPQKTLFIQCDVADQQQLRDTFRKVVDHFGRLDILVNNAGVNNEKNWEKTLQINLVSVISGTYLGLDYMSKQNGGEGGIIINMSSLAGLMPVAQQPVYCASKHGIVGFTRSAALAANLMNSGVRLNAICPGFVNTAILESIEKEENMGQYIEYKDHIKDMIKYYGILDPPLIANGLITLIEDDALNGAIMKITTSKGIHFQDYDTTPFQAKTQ
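NADH formation kinetics: reaction with 30 uM PGE2 and 1 mM NAD+ (final), 20 nM enzyme, Tris-HCl pH 8 with Tween 20, after 15 min compound preincubation at room temperature. Fluorescence change, last versus first of five reads.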
The depositor's hits bear a star; ? = inconclusive; & = joins results of further samples. % is scaled to controls: 0 for no effect and ±100 for the full control effect; potency is read from the fitted curve at half-maximal effect. An excerpt (hit frequency here may not be typical).

SMILES	HPGD inh
CCN(CC(=O)N1CCN(c2ccccc2)CC1)S(=O)(=O)c1ccc(C)cc1	-9%
CC1(C)Cc2c(C#N)c(SCc3nc4ccccc4[nH]3)nc(N3CCOCC3)c2CO1	-17%
Cc1nnc2n(Cc3ccccc3)c(=O)c3c4c(sc3n12)COC(C(C)C)C4 (configuration not stated)	-20%
CC(=O)CCc1ccccc1	-11%
O=c1[nH]c(CN2CCC(c3nc4ccccc4s3)CC2)nc2sc3c(c12)CCC3	-2%
COC(=O)[C@@]1(Cc2ccc(F)cc2)[C@H]2c3cc(C(=O)N4CCCC4)n(CCSCCO)c3C[C@H]2CN1C(=O)c1ccccc1	-9%
Cc1c(O)ccc(-c2[nH]ncc2-c2nc3ccccc3s2)c1O	?
CC1CCCCC1NCC(=O)Nc1ccccc1-c1ccccc1 (configuration not stated)	-5%
COC(=O)[C@@H]1C[C@@]1(C)[C@@H](NC(=O)OCc1ccccc1)c1ccccc1	-15%
COc1ccc2oc(=O)c(C(C)=O)cc2c1	-17%
Cc1cc(S(=O)(=O)N2CCN=C2c2ccccc2)c(C)cc1Cl	-3%
O=C(N1CCN(c2cccc(Cl)c2)CC1)C1(c2cccs2)CCOCC1	-1%

Fetched by structure from the list above (2):
SMILES	HPGD inh
COC(=O)[C@@H]1C[C@@]1(C)[C@@H](NC(=O)OCc1ccccc1)c1ccccc1	-15%
O=C(N1CCN(c2cccc(Cl)c2)CC1)C1(c2cccs2)CCOCC1	-1%

Next structures:
SMILES	HPGD inh
O=C(NCC1CCCO1)c1ccc(COc2ccc(F)cc2)o1 (configuration not stated)	25µM*
COc1ccc(NC(=O)N2CC[C@@]3(CCCN(C(=O)c4ccncc4)C3)C2)cc1	-9%
CN(CC(=O)Nc1ccccc1C(=O)N1CCCC1)S(=O)(=O)c1ccc(Cl)cc1	-5%
COc1ccc(S(=O)(=O)N(CC(=O)N/N=C/c2cccs2)c2ccc(C)cc2)cc1OC	-10%
O=C(O)C1C2C=CC(C2)C1C(=O)NCc1ccccn1 (configuration not stated)	-8%
O=C(O)CCC(=O)NNC(=O)CCCOc1ccc(Cl)cc1Cl	-10%
CCN(C(=O)c1cccs1)c1nnc(-c2ccncc2)s1	-11%
O=C(Nc1ccc(Cl)cc1)NC1(C(=O)NCCCN2CCOCC2)CCCCC1	-8%
COC(=O)CSc1nc2c(c(=O)n(C)c(=O)n2C)n1CCC(C)C	14µM*
CC(=O)c1c(O)c(C)c(-c2ccccc2)n(-c2ccccc2)c1=O	-11%
Cc1ccc(C)c(NC(=S)NNC(=O)c2sccc2C)c1	-11%
Cc1nn(-c2ccccn2)c2c1-c1nc(N3CCOCC3)ncc1CC2	?
CC(=O)C1=C(C)NC(SCC(N)=O)=C(C#N)C1C (configuration not stated)	-7%
COC(=O)c1[nH]c2ccc(C)cc2c1NS(=O)(=O)c1ccc(F)cc1	-29%
COc1ccc(OC)c(C2=Nn3c(nnc3-c3cccc(OC(C)C)c3)SC2)c1	?
OCCCc1nc2n(n1)C(c1ccccc1)C=C(c1ccc(F)cc1)N2 (configuration not stated)	?
Cn1c(=O)c2c(nc(Oc3ccc4ccccc4c3)n2C)n(C)c1=O	-20%
CN1CCC(=NNC(=O)CN(c2ccc(Oc3ccccc3)cc2)S(C)(=O)=O)CC1	0%
CCOC(=O)Cn1nnnc1C(CC)N(Cc1ccccc1)Cc1cc2cc(C)ccc2[nH]c1=O (configuration not stated)	-9%
Nc1nnc(CC(=O)N/N=C/c2ccc(-c3ccccc3Cl)o2)s1	-29%
Cc1cc2ncn(C(=O)c3c(-c4ccccc4)noc3C)c2cc1C	4%
CCOC(=O)N1CCN(C(=O)CN2C(=O)CC(C)(C)S(=O)(=O)c3ccccc32)CC1	-4%
O=C(COC(=O)c1ccc([N+](=O)[O-])s1)Nc1ccccc1	-3%
O=C(On1c(-c2ccccc2)nc2ccccc2c1=O)c1ccco1	?
CCOC(=O)c1ccc(NC(=O)C2CCN(S(=O)(=O)CC)CC2)cc1	-2%
CC(=O)Nc1cc(C(=O)OCC(=O)c2ccc(C)cc2)ccc1C	-3%
Cc1cccc(NC(=O)CC2Nc3cccc4cccc(c34)NC2=O)c1 (configuration not stated)	-16%
Cc1ccc(C2CN=NC23CCc2ccccc2C3=O)cc1 (configuration not stated)	32µM*
COc1cc(CC(=O)NCCc2ccc(OCc3ccccc3)cc2)c([N+](=O)[O-])cc1OC	-19%
c1ccc(-c2csc3ncnc(N4CCc5ccccc5C4)c23)cc1	?
CCO[Si](CCCN)(OCC)OCC	-11%
Cc1ccc(C(=O)C[n+]2ccc(-c3nnc4n3CCC4)cc2)cc1	-18%
COc1ccccc1-c1nnc(NC(=O)c2ccc(S(=O)(=O)N(C)C)cc2)o1	-8%
COc1ccc(CNS(=O)(=O)c2ccc3c(c2)CCN3C(=O)C2CC2)cc1	-7%
COc1cccc(-c2nc3n(n2)C(c2cccs2)C(C(=O)Nc2cccnc2)=C(C)N3)c1 (configuration not stated)	-17%
Cc1nc2sc(C(=O)O)c(N)c2c2c1COC(C)(C)C2	-13%
Cc1cc(NC(=O)CN2CCC(n3nnc4cc(C(F)(F)F)ccc43)CC2)no1	-14%
Cc1nnc(SCCC(C)C)[nH]c1=O	-19%
Cc1c(NC(=O)CSC2=C(C#N)C(c3ccccc3F)CC(=O)N2)c(=O)n(-c2ccccc2)n1C (configuration not stated)	-7%
O=C(c1ccc2snnc2c1)N1CCSCC1	14µM*
COC(=O)C1(S(=O)(=O)C2(C(=O)OC)CCCC2)CCCC1	-6%
CCC(C)[C@H](NC(=O)N1CCN(C)CC1)C(=O)OC (some centres not stated)	-7%
O=C(COC(=O)[C@H](Cc1ccccc1)NC(=O)c1ccco1)NCc1ccccc1	-14%
O=C(COc1ccccc1)Nc1nonc1NC(=O)COc1ccccc1	-2%
CC1(C)CC(=O)c2cnc(N3CCc4ccccc4C3)nc2C1	-21%
Oc1ccc2ccccc2c1C=NCc1cn2ccsc2n1	-7%
CC[C@H](CO)NCCN[C@H](CC)CO	-6%
CSCCC(NC(=O)c1ccc(Cl)cc1)C(=O)OCC(=O)Nc1ccc(C#N)cc1 (configuration not stated)	-15%
CCOc1ccccc1Oc1c(C)oc2cc(OC(=O)N3CCOCC3)ccc2c1=O	-13%
COc1ccc(F)cc1S(=O)(=O)Nc1ccc(C)cc1	3%
CC(C)NC1(C(N)=O)CCN(Cc2ccccc2)CC1	-2%
CCOC(=O)Nc1cccc(NC(=O)c2cc(OC)cc(OC)c2)c1	-11%
OC(COCc1ccccc1)CN1CCCC1 (configuration not stated)	5%
COC(=O)[C@@H](NC(=O)NCc1ccccc1F)C(C)C	-9%
CC(=O)Nc1ccc(S(=O)(=O)Nc2cccc(NC(=O)C(C)(C)C)c2)cc1	-25%
COc1ccc(CCn2c(=N)c(C(=O)N3CCN(C)CC3)cc3c(=O)n4ccccc4nc32)cc1	?
CCCCCCCC(=O)OC[C@H](CO)OC(=O)CCCCCCC	-9%
CCOC(=O)CCn1nc(-c2ccccc2)cc1N	2%
C=CCNC(=S)NNC(=O)c1ccc2c(c1)OCO2	-9%
CCOC(=O)c1cnc(-c2cccc(OC)c2)[nH]c1=O	-11%

Next part.
SMILES	HPGD inh
Cc1cc2ncc(-c3ccc(Cl)cc3)c(N)n2n1	?
CC(C)(C)Cc1nnc(NC(=O)c2cc(-c3ccccc3)nc3ccccc23)s1	-23%
CCNc1nc(NCC)nc(OCCOC(C)=O)n1	-9%
CCS(=O)(=O)Nc1cccc(C2=NN(S(=O)(=O)c3ccccc3)C(c3cccs3)C2)c1 (configuration not stated)	-12%
O=C(Cc1cccs1)N1CCC(c2nc3c(nnn3Cc3ccc(F)cc3)c(=O)[nH]2)CC1	14µM*
CC1(c2ccc(Cl)c(Cl)c2)NC(=S)N2C1NC(=S)N2c1ccccc1 (configuration not stated)	-3%
O=S(=O)(NCCNS(=O)(=O)c1cccs1)c1cccs1	1%
O=C(CN1CCc2ccccc21)Nc1ccc2c(c1)OCO2	-7%
CCCCCCn1c(C(C)O)nc2ccccc21 (configuration not stated)	-19%
CCOc1ccccc1NC(=S)N(CCCN1CCOCC1)Cc1cn(C)c2ccccc12	-9%
CCCC(=O)c1cc(F)c(N2CCN(CCC#N)CC2)cc1C	-22%
O=C(Nc1ccc(N2CCCC2)cc1)c1ccc([N+](=O)[O-])cc1Cl	-13%
N#CCCSCc1ccc2oc(C(=O)O)cc2c1	-13%
CCCc1[nH]nc2c1C1(C(=O)N(C(C)C)c3ccccc31)C(C#N)=C(N)O2 (configuration not stated)	0%
COCCn1c(SCc2nnc(-c3ccccc3)o2)nc2sc3c(c2c1=O)CCC3	7.1µM*
Cc1ccc(CNC(C)(C)CO)cc1	-5%
C/C(=C\[C@@H](NP(=O)(c1ccccc1)c1ccccc1)c1ccccc1)CO[Si](c1ccccc1)(c1ccccc1)C(C)(C)C	-5%
COC1=C(C(=O)c2ccccc2)C(=O)C2(CC=C(C)C)C[C@H](C(=O)OCC(F)(F)F)C(C)(C)[C@@]1(CC=C(C)C)C2=O (tested in a mixture with another compound)	-12%
CC(C)C(=O)c1c(C(C)C)nn2ccccc12	-13%&-19%
COc1cccc(-c2nc(CS(=O)(=O)CC(=O)N3CCN(C)CC3)c(C)o2)c1	-8%
Cc1ccc(OCCOCCOc2ccc(Br)cc2/C=N\NC(=O)c2ccncc2)cc1	?
CS(=O)(=O)N1CCC(C(=O)Nc2ccc3c(c2)OCCO3)CC1	-9%
Cc1ccc(NC(=O)C(=O)NCCOc2ccccc2Cl)cc1	-4%
COc1ncc2ncc(=O)n(C)c2n1	-16%
O=C(O)C(=Cc1ccc(-c2ccccc2)cc1)C(=O)O	-2%
CCCc1nnc(NC(=O)Nc2ccccc2OC)s1	-4%
NCCNC(=O)c1ccc(Cl)cc1	-9%&-10%
CCc1c(O)nc(SCC(=O)N2CCCCC2)n(-c2ccccc2C)c1=O	5%
O=C(CSCC(=O)N1CCCCC1)OCC(=O)c1c[nH]c2ccccc12	-9%
COc1ccccc1NC(=S)N(CCCN1CCOCC1)Cc1cn(C)c2ccccc12	-15%
CC(C)Cc1c(O)nc(SCC(=O)Nc2ccc3c(c2)CCC3)[nH]c1=O	3%
C=C(C)c1cccc(C(C)(C)NC(=O)NCc2ccc(OC)cc2)c1	-5%
Cc1ccc(Nc2c([N+](=O)[O-])ccc3c2=NC2(CCCCC2)N=3)cc1	-1%
Cn1c(=O)[nH]c2cc(Cl)cnc21	24%
COc1ccc2c(c1)c(C(=O)N/N=C/c1ccc(O)c(O)c1)c(C)n2C	?
Oc1c(C(c2ccccc2)N2CCN(Cc3ccccc3)CC2)sc2ncnn12 (configuration not stated)	0%

Of the compounds above, these contain a halogen:
SMILES	HPGD inh
COC(=O)[C@@]1(Cc2ccc(F)cc2)[C@H]2c3cc(C(=O)N4CCCC4)n(CCSCCO)c3C[C@H]2CN1C(=O)c1ccccc1	-9%
Cc1cc(S(=O)(=O)N2CCN=C2c2ccccc2)c(C)cc1Cl	-3%
O=C(N1CCN(c2cccc(Cl)c2)CC1)C1(c2cccs2)CCOCC1	-1%
O=C(NCC1CCCO1)c1ccc(COc2ccc(F)cc2)o1 (configuration not stated)	25µM*
CN(CC(=O)Nc1ccccc1C(=O)N1CCCC1)S(=O)(=O)c1ccc(Cl)cc1	-5%
O=C(O)CCC(=O)NNC(=O)CCCOc1ccc(Cl)cc1Cl	-10%
O=C(Nc1ccc(Cl)cc1)NC1(C(=O)NCCCN2CCOCC2)CCCCC1	-8%
COC(=O)c1[nH]c2ccc(C)cc2c1NS(=O)(=O)c1ccc(F)cc1	-29%
OCCCc1nc2n(n1)C(c1ccccc1)C=C(c1ccc(F)cc1)N2 (configuration not stated)	?
Nc1nnc(CC(=O)N/N=C/c2ccc(-c3ccccc3Cl)o2)s1	-29%
Cc1cc(NC(=O)CN2CCC(n3nnc4cc(C(F)(F)F)ccc43)CC2)no1	-14%
Cc1c(NC(=O)CSC2=C(C#N)C(c3ccccc3F)CC(=O)N2)c(=O)n(-c2ccccc2)n1C (configuration not stated)	-7%
CSCCC(NC(=O)c1ccc(Cl)cc1)C(=O)OCC(=O)Nc1ccc(C#N)cc1 (configuration not stated)	-15%
COc1ccc(F)cc1S(=O)(=O)Nc1ccc(C)cc1	3%
COC(=O)[C@@H](NC(=O)NCc1ccccc1F)C(C)C	-9%
Cc1cc2ncc(-c3ccc(Cl)cc3)c(N)n2n1	?
O=C(Cc1cccs1)N1CCC(c2nc3c(nnn3Cc3ccc(F)cc3)c(=O)[nH]2)CC1	14µM*
CC1(c2ccc(Cl)c(Cl)c2)NC(=S)N2C1NC(=S)N2c1ccccc1 (configuration not stated)	-3%
CCCC(=O)c1cc(F)c(N2CCN(CCC#N)CC2)cc1C	-22%
O=C(Nc1ccc(N2CCCC2)cc1)c1ccc([N+](=O)[O-])cc1Cl	-13%
COC1=C(C(=O)c2ccccc2)C(=O)C2(CC=C(C)C)C[C@H](C(=O)OCC(F)(F)F)C(C)(C)[C@@]1(CC=C(C)C)C2=O (tested in a mixture with another compound)	-12%
Cc1ccc(OCCOCCOc2ccc(Br)cc2/C=N\NC(=O)c2ccncc2)cc1	?
Cc1ccc(NC(=O)C(=O)NCCOc2ccccc2Cl)cc1	-4%
NCCNC(=O)c1ccc(Cl)cc1	-9%&-10%
Cn1c(=O)[nH]c2cc(Cl)cnc21	24%

Screening results: PubChem BioAssay, National Center for Advancing Translational Sciences (NCATS)
